Compound activity: PubChem, several laboratories
MT1-MMP promoter: inhibitors of MT1-MMP promoter transcription, cell-based, luciferase reporter, luminescence (AID 618); MT1-MMP promoter luciferase reporter cells, luminescence; calls from a first round at 10 µM; hits with a dose series show EC50 in µM; 87,000 compounds, 0.62% hits;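 active = over half of the reporter light lost at 10 µM or EC50 under 50 µM; inactive = the rest and hits that failed the dose series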;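 note: actives suppress MT1-MMP promoter-driven transcription so potencies describe inhibitors; HT1080 fibrosarcoma cells; overnight exposure; toxic or luciferase-blocking compounds were not removed from the actives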
Hsc70 ATP site: Hsc70 inhibitors, probe displacement, primary screen, biochemical, fluorescence polarization (AID 568); Heat shock cognate 71 kDa protein (Homo sapiens); Hsc70 fluorescence polarization, probe displacement; higher % means a stronger effect; strong numbers were not always called active; one-dose displacement, % at 20 µM; IC50 in µM for titrated hits; 83,000 tested, under 10 active;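 active = displacement above 50% without optical interference and an IC50 on retest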;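 note: ATPase domain with a fluorescein-tagged ATP probe; 0% = vehicle and 100% = excess ADP; read after one hour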
WNV protease inh: inhibitors of WNV NS2B-NS3 protease, primary screen, biochemical, fluorogenic substrate; fluorogenic substrate Ex360/Em465; stronger effect = lower value; z-score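 (tested at a level between 10 and 100 µM)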; 65,000 compounds, 0.18% hits; Genome polyprotein (West Nile virus), P06935;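 active = z-score at -3 or under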;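 note: score is relative to mean and spread of the compound wells of a plate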
Target sequence (P06935 1371-1501 limits assumed): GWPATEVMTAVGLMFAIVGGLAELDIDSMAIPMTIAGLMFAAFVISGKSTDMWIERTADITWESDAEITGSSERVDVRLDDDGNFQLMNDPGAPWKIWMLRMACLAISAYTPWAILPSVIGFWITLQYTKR
Target sequence (P06935 1502-1679 limits assumed): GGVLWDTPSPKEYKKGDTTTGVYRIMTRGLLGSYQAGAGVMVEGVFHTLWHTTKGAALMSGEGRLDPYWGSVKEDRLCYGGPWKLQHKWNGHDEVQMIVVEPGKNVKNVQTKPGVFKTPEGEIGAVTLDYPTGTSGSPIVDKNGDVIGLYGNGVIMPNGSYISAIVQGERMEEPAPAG
* = called active by the depositor; i = inactive; / = no result given; & = joins results of further samples. An excerpt; count on the stated rates, not on these rows.

SMILES	MT1-MMP promoter	Hsc70 ATP site	WNV protease inh
COc1ccccc1NC(=O)CSc1nc(O)cc(=O)n1-c1ccccc1OC	i	-3.5%	-0.75
COc1ccc2ccccc2c1/C=N/O	i	7.7%	-2.26
CCC(=O)c1ccccc1OCCCn1cncn1	i	-3.4%	-0.22
CCOc1c(C)cc(-c2ncccc2O)cc1C	i	-6.4%&-0.4%	0.35
COCCCn1c(SCC(=O)N2CCc3ccccc32)nnc1-c1ccco1	i	-4.4%	/
CN(C)C(=O)NC1CCCCCCCCCCC1	i	5.4%	-0.86
CSc1nc(NC(C)(C)C)nc(Oc2ccc(=O)[nH]n2)n1	i	-5.4%	0.52
Cc1cccc(NC(=O)c2cnc3sccn3c2=O)c1C	i	4.5%	-0.78
CCN(CC)c1ccc(-n2c(C)c(C(C)=O)c(C(C)=O)c2C)cc1	i	-2.0%	1.17
O=C(Oc1ccc(N(Cc2cccs2)C2=NS(=O)(=O)c3ccccc32)cc1)c1ccccc1	i	-0.9%	/
O=C(NCC1(c2ccccc2)CCCC1)C(=O)N1CCOCC1	i	-3.3%	/
CCOc1ccc(Cl)cc1CSc1n[nH]c(CC)n1	i	2.8%	-0.86
N=c1sccn1CC(=O)Nc1ccc(S(=O)(=O)N2CCOCC2)cc1	i	-1.4%	-2.06
CCCNC(=O)CN(c1ccc(F)c(Cl)c1)S(C)(=O)=O	i	-2.5%	-0.56
CCOC(=O)CC1C(=O)NCCN1C(=O)c1cc2c(=O)n3ccccc3nc2s1 (stereo not given)	i	5.8%	5.04
COc1ccc(S(=O)(=O)Cc2ccc(C(=O)N3CCN(Cc4ccccc4)CC3)o2)cc1	i	1.9%	0.6
O=C(CCC(=O)N1CCN(S(=O)(=O)c2ccccc2)CC1)NC1CCCc2ccccc21 (stereo not given)	i	1.3%	-1.28
O=C(NCc1nnc2n1CCCCC2)c1ccc(Cl)cc1Cl	i	-2.2%	0.77
Cc1c2cn[nH]c(=O)c2c(C)n1Cc1ccc(F)cc1	i	1.0%	0.26
Cn1c(=O)n(C)c2cc(S(=O)(=O)NCCOCCO)ccc21	i	4.2%	/
O=C(CCn1c(SCC(=O)NCc2ccco2)nc2ccccc2c1=O)NCCc1ccccc1	i	0.0%	0.49
O=C(O)CCSc1nnc(-c2ccccc2)n1-c1ccccc1	i	3.8%	-0.8
CCOC(=O)c1c(NC(=O)CN2CCN(C(=O)c3ccco3)CC2)sc2c1CCCC2	i	0.1%	/
Cc1oc2nc(SCC(=O)NCc3cccnc3)nc(N)c2c1C	i	-6.0%	-2.33
COC(=O)/C=C(\C)NC(=O)c1cccs1	i	4.1%	1.6
O=C(CN1CCOCC1)Nc1scc(-c2ccccc2)c1C(=O)N1CCOCC1	i	2.1%	1.2
COc1ccc(-c2cn3c(C)c(C(=O)N4CCN(c5ccc(F)cc5)CC4)sc3n2)cc1	i	1.3%	2.1
CC1(C)OC(=O)C(=CNc2ccccc2F)C(=O)O1	i	-0.7%	0.18
Cc1cc(=O)oc2cc(OCC(=O)NCc3ccccn3)ccc12	i	2.6%	/
Cc1c(C(=O)OC2CCC(C)CC2)[nH]c2c1C(=O)CCC2 (stereo not given)	i	5.4%	0.46

(next part)
SMILES	MT1-MMP promoter	Hsc70 ATP site	WNV protease inh
CC(=O)Nc1c(C(=O)NCc2ccccc2)nnn1Cc1ccccc1	i	0.0%	-0.92
Cc1nc(NCc2ccco2)[nH]c(=O)c1CCC(C)C	i	-2.0%	-0.97
CCOC(=O)c1c(C)[nH]c(C(=O)OCC(=O)Nc2cc(C)ccc2OC)c1C	i	2.8%	-0.64
O=C(O)Cn1cc(C(=S)N2CCOCC2)c2ccccc21	i	2.6%	/
CCOc1ccccc1NS(=O)(=O)c1ccc(Br)s1	i	0.9%	-1.13
O=C(Cn1cc2c(n1)CCCC2)NCCCN1CCN(Cc2ccccc2)CC1	i	1.0%	3.11
CCOC(=O)CCc1n[nH]c(=O)[nH]c1=O	i	1.2%	-0.85
CC1(C)C(c2ccccc2)=[N+]([O-])CN1O	i	3.6%	0.69
O=C1CNC(=O)/C1=C\N1CCN(C(c2ccccc2)c2ccccc2)CC1	i	-2.2%	1.12
C#CCNc1cc(C)nc2ncnn12	i	7.0%	1.61
O=C(NC1CCN(C(=O)Nc2ccccc2)CC1)C1CCCCC1	i	-3.2%	-0.06
Cc1cccc(NC(=O)CN2C(=O)NC(Cc3ccccc3)C2=O)c1 (stereo not given)	i	-6.7%	/
O=C(Nc1c(-c2ccccc2)nc2c(Br)cc(Br)cn12)c1ccco1	i	-1.2%	0.37
CCOC(=O)/C=C1\SCC(=O)N1CC(O)CN1C(=O)CS/C1=C\C(=O)OCC	i	5.7%	1.55
O=C1C2C(C(=O)N1Cc1cccnc1)C1C=CC2C12CC2 (stereo not given)	i	0.9%	-0.1
COC(=O)COc1ccc(Oc2cc(C)nc(SC)n2)nn1	i	3.3%	0.52
CCN(CC)CC(=O)Nc1c(Br)ccc2c1OCO2	i	5.7%	0.3
O=C(CN1CCN(c2ccccn2)CC1)Nc1cccc(C(F)(F)F)c1	i	-0.5%	0.35
CC(C)OC(=O)CSc1nnc(-c2ccccn2)n1-c1ccccc1	i	-1.4%	0.59
O=C(CN1CCN(c2ccc(F)cc2)CC1)c1ccc2c(c1)OCO2	i	0.5%	0.11
CCOC(=O)C1CCCN(C(=O)c2ccc(CS(=O)(=O)c3ccc(C)cc3)o2)C1 (stereo not given)	i	-0.1%	1.92
Cc1cccc(NC(=O)Cn2cnc3sc(C)c(S(=O)(=O)N4CCC(C)CC4)c3c2=O)n1	i	2.4%	/
CC(C)(C)CC(C)(C)NCC(O)COc1c(F)cc(Br)cc1F (stereo not given)	i	-1.3%	/
CCOC(=O)/C=C1\NC2(CCCCC2)Cc2cc(OC)c(OC)cc21	i	3.9%	/
O=C(COc1ccc(F)cc1)N(CC1=CCS(=O)(=O)C1)c1ccccc1	i	-2.0%	1.36
O=C(c1cccs1)N1CCN=C1SCc1ccccc1	i	-7.2%	-0.82
Cc1c(NC(=O)CSc2nnnn2Cc2ccccc2)c(=O)n(-c2ccccc2)n1C	i	-0.5%	0.23
Cc1cccc(C)c1OCC(O)CN (stereo not given)	i	-2.0%	-0.93
CCCC(=O)Nc1c2c(nn1-c1ccc(OC)cc1)CS(=O)(=O)C2	i	-3.3%	-0.43
CC(=O)N1CCc2cc(Br)cc(S(=O)(=O)NCCCN3CCC(C)CC3)c21	i	4.8%	-0.79

The list continues.
SMILES	MT1-MMP promoter	Hsc70 ATP site	WNV protease inh
CCOC(=O)c1cc2sc(C)cc2n1CC(=O)NCc1ccc(F)cc1	i	2.1%	0.18
CCN(CC)c1ccc(/C=C2\C(=O)N(c3ccc([N+](=O)[O-])cc3)N=C2N2CCOCC2)cc1	i	-0.6%	/
O=S1(=O)Nc2c(ccc3cccnc23)-c2ccccc21	24.6µM*	-5.6%	3.3
CC(SC1CCCC1)C(=O)NC(C)(C#N)C(C)C (stereo not given)	i	-5.3%	0.22
O=C(CCNS(=O)(=O)c1cccc2nsnc12)NCCc1ccccc1	i	1.2%	-2
c1ccc(Nc2c3c(nc4ncnn24)CCC3)cc1	i	4.3%	-1.12
O=C(O)Cn1nnnc1SCC(=O)Nc1ccc(OC(F)(F)F)cc1	i	4.7%	-0.55
c1nc(N2CCNCC2)c2sc3nc(N4CCOCC4)c4c(c3c2n1)CCC4	i	5.4%	-0.55
C=CCc1cccc(CNc2nc3ccccc3n2C(C)C)c1O	i	0.6%	0.45
COc1ccc(CNc2nc3c(c(=O)[nH]c(=O)n3C)n2CCCc2ccccc2)cc1	i	2.0%	0.5
Cc1cc(C)cc(NC(=S)NCC2CCCO2)c1 (stereo not given)	i	-1.1%	/
CC(=O)Nc1ccc(C(=O)CSc2nnc(-c3ccc(O)cc3)n2CC2CCCO2)cc1 (stereo not given)	i	-5.3%	-1.28
Cc1cc(C(=O)N2CCN(c3ccccn3)CC2)c(C)o1	i	-1.1%	-0.36
COCC(=O)Nc1cc(OC)cc(OC)c1	i	-3.1%	/
CC(=O)Nc1cccc(-c2cnc3ccccc3n2)c1	i	6.4%	0.14
CCOC(=O)Cn1c(=O)oc2cc(S(=O)(=O)NC3CCCc4ccccc43)ccc21 (stereo not given)	i	-0.8%	-0.96
Cc1c(NC(=O)C2(c3ccc(Cl)cc3)CCCC2)c(=O)n(-c2ccccc2)n1C	i	2.2%	/
CN(Cc1ccccc1)c1nc2c(c(=O)[nH]c(=O)n2C)n1CCSc1nc2ccccc2[nH]1	i	-7.5%	-1.21
CCOC(=O)C1C2C=CC3(CN(c4ccccc4CC)C(=O)C13)O2 (stereo not given)	i	-3.7%	1.8
CCOC(=O)CSC1=Nc2ccccc2C2=NC(CC(=O)NCc3ccc4c(c3)OCO4)C(=O)N12 (stereo not given)	i	5.5%	-0.79
Cc1cccc(S(=O)(=O)c2c(N)n(/N=C/c3ccco3)c3nc4ccccc4nc23)c1	i	-4.9%	0.2
CCOC(=O)C1=C(N)N2C(=O)CSC2=C(C(=O)OC)C1	i	2.8%	1.18
COc1cccc(CNC(=O)Cn2c(=O)oc3ccccc32)c1OC	i	-0.3%	-0.43
N#Cc1nc(COc2cccc(Cl)c2)oc1N1CCCC1	i	0.9%	-0.53
CC(/C=C/c1ccc(Cl)o1)=C\C(=O)O	i	-4.3%	-0.26
CCOC(=O)NCN1C(=O)C2C3C=CC(C3)C2C1=O (stereo not given)	i	3.5%	/
CCN1c2ccccc2-c2nc3ccccc3n2C1c1cccnc1 (stereo not given)	i	4.0%	-0.58
CCc1ccc(CCC(=O)Nc2ccc(C)cc2C)o1	i	3.8%	0.14
[O-]/C(=C(\C(=S)NCc1ccco1)[n+]1ccccc1)c1ccccc1Br	i	-0.2%	/
COC(=O)C1(CCSC)NC(c2ccccc2OC)C2C(=O)N(C)C(=O)C21 (stereo not given)	i	1.5%	-0.44

Five compounds drawn at random from those above:
SMILES	MT1-MMP promoter	Hsc70 ATP site	WNV protease inh
O=C(O)Cn1nnnc1SCC(=O)Nc1ccc(OC(F)(F)F)cc1	i	4.7%	-0.55
Cc1cc(C)cc(NC(=S)NCC2CCCO2)c1 (stereo not given)	i	-1.1%	/
O=S1(=O)Nc2c(ccc3cccnc23)-c2ccccc21	24.6µM*	-5.6%	3.3
CCOC(=O)C1=C(N)N2C(=O)CSC2=C(C(=O)OC)C1	i	2.8%	1.18
CCOC(=O)c1cc2sc(C)cc2n1CC(=O)NCc1ccc(F)cc1	i	2.1%	0.18

(cont.)
SMILES	MT1-MMP promoter	Hsc70 ATP site	WNV protease inh
COc1ccc(OC)c(-c2c[n+](=O)c3c(n2[O-])CCCC3)c1	i	5.7%	-0.49
CCC(C)(C)n1nnnc1C(c1ccc(OC)c(OC)c1)N1CCN(c2ccc(F)cc2)CC1 (stereo not given)	i	4.4%	0.42
COc1cc(Br)cc2cc(C(=O)OC3CCN(C)CC3)c(=O)oc12	i	0.4%	/
Cc1cccc(-n2ncc3c(N4CC(C)CC(C)C4)ncnc32)c1 (stereo not given)	i	-3.9%	-1.98
CCCCCCCCCS(=O)(=O)N/N=C/c1cccc([N+](=O)[O-])c1	i	-1.3%	/
CCCCCn1c(SCC#N)nc2cc(C(=O)NC3CCCCC3)ccc2c1=O	i	-3.0%	0.18
CCOC(=O)CNC(=O)c1ccc2c(c1)OCCO2	i	-1.0%	0.65
CCCOC(=O)CCn1c(=S)oc2ccccc21	i	-2.7%	0.27
CCCn1c(=O)[nH]c2ccccc21	i	3.4%	/
CCCOc1ccc(N2C(=O)CC(N(O)c3ccccc3)C2=O)cc1 (stereo not given)	i	-4.2%	-0.71
CCN(CC)c1ccc(/C=C2/C(=O)N(c3ccc([N+](=O)[O-])cc3)N=C2N2CCOCC2)cc1	i	3.9%	/
Cn1c(SCc2nc3ccccc3c(=O)[nH]2)nnc1-c1ccco1	i	8.0%	-0.34
COCC(C)n1c(C)cc(C(=O)COc2ccc(S(=O)(=O)N3CCOCC3)cc2Cl)c1C (stereo not given)	i	3.9%	-1.19
CCCn1cnc2cc(NCc3cccc(OC)c3)ccc21	i	2.0%	-0.66
COc1cccc(-n2nnc3c(=O)n(Cc4ccc(F)cc4)cnc32)c1	i	1.9%	1.22
COCCCN1CC23C=CC(O2)C(C(=O)OC)C3C1=O (stereo not given)	i	6.2%	1.05
COC(=O)c1ccc(S(=O)(=O)N(Cc2cc3cc4c(cc3[nH]c2=O)OCO4)C2CCCCC2)cc1	i	-0.4%	-0.1
COc1ccc(NC(=O)COC(=O)Cn2c(C)nc3ccccc32)cc1OC	i	-1.5%	/
CCc1ccc2nc(NC(=O)c3cc(C)on3)sc2c1	i	3.3%	-2.18
O=C(Nc1ccc(OCC(=O)N2CCN(S(=O)(=O)c3ccccc3)CC2)cc1)c1ccco1	i	-1.9%	-0.92
C=CCn1cnc2c(c1=O)c1nc3ccccc3nc1n2/N=C/c1ccccn1	i	0.9%	-0.42
